Sa ugtP lethal – growth inhibition of S. aureus ugtP deletion strain. growth inhibition, % (test concentration not listed). 0.54% of 330,000 active. S. aureus RN4220 ugtP deletion, OD600 growth, 16 h; some inactives read as strong as hits;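 active = z-score under -3 and OD600 up to 0.15 on both plates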;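 note: plate controls were untreated wells for no effect and antibiotic for full effect; wells of about 80 µL received 100 nL stock; the first replicate is given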
BJeLR viability – BJeLR cell viability loss | BJeLR (HRASV12) viability, CellTiter-Glo ATP luminescence, 48 h; reference of the scale not given here | inhibition, % (test concentration not listed) | 0.17% of 300,000 active | AID 1554;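 active = replicate mean above 50%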;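 note: 50 nL library stock added to about 25 µL; numbers are from one replicate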
PrP UTR inh – inhibition of PrP 5' UTR reporter expression; cell-based PrP 5' UTR mRNA reporter, plate reader; inhibition, % (no concentration beside the values); 0.35% of 340,000 active; AID 488862;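 active = every replicate at 50% or more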;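 note: 0 = median of the neutral control wells; tested in H4 reporter cells; numbers are from one replicate; inactives centre near -14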
RN4220 kill – kills Staphylococcus aureus RN4220 | S. aureus RN4220 growth, OD600, 16 h | inhibition, % (test concentration not listed) | 0.33% of 330,000 active;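 active = z-score of -3 or lower and OD600 up to 0.18 on both plates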;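 note: plate controls were untreated cells for no effect and reference antibiotic for full effect; stock transfer was 100 nL into about 80 µL; one replicate is shown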
Autofluor counter – flagged as autofluorescent in microsphere protease counterscreen | compound autofluorescence counterscreen, microsphere flow cytometry; hits give high values | fluorescence intensity (test concentration not listed) | 3.1% of 360,000 active | AID 624483;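 active = at least 3 SD above the mean of all compounds, about 16000 in these data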;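 note: 100 nL of 1 mM stock went into each well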
Mtb hypoxia rep – inhibitors of hypoxia-regulated fluorescent reporter in Mycobacterium tuberculosis | M. tuberculosis hypoxia-regulated fluorescent reporter, fluorescence | fluorescence inhibition, % (concentration not given with the values) | 0.1% of 300,000 active;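 active = 35 to 45% if threefold the growth effect, above 45% if 1.5-fold the growth effect; inactive = the rest, general growth blockers included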;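 note: wells of about 50 µL received 100 nL stock; 0% = vehicle wells and 100% = reference inhibitor wells; whole bacteria with a GFP reporter of the hypoxia response; strong numbers were not always called active; many hits fall short of the cut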
Mtb hypoxia rep growth – also measured in Mtb hypoxia rep; calls as there; growth inhibition, %; measured here: M. tuberculosis growth (absorbance);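 0% = vehicle and 100% = reference antibiotic; read after six days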
Starred values were filed as active, the others as inactive; · = not tested or not shown; & = joins results of further samples. The order is random; any-hit rate near 4%.

Compound | Sa ugtP lethal | BJeLR viability | PrP UTR inh | RN4220 kill | Autofluor counter | Mtb hypoxia rep | Mtb hypoxia rep growth
CCn1cc(CN2CCN(Cc3ccsc3)C(CCO)C2)cn1 (stereo not drawn) | 2.4 | -5.8 | -28.1 | 1.2 | 3422 | -2.1 | -4.5
Cc1cc(/C=C2/C(=N)N3C(=NC2=O)SN=C3S(C)(=O)=O)c(C)n1-c1ccccc1 | · | 1.6 | -12.8 | · | 2504 | · | ·
CCOC1OC(C(=O)NCc2nc3ccccc3[nH]2)=CC(c2ccc(C(F)(F)F)cc2)C1CCCO (stereo not drawn) | -6.4&-9.2 | · | · | 1.7&8.4 | · | -8.0&8.2 | 0.3&10.7
CCOC(=O)c1cccc(N2C(=O)Nc3ccccc3N2O)c1 | -1.7 | -9.2 | -21.1 | 1.6 | 2013 | 11.0 | 1.0
Cc1ccc(NC(=O)COc2ccccc2C#N)cc1S(=O)(=O)N1CCCCCC1 | -12.6 | · | -12.6 | 11.0 | 8874 | 5.8 | 1.0
Cc1ccc(S(=O)(=O)NNC(=O)c2ccc(F)cc2)cc1 | 11.0 | -16.4 | -20.1 | 4.4 | 3272 | 6.7 | -2.0
NS(=O)(=O)c1cccc(NC(=O)COC(=O)c2ccccc2SCC(=O)N2CCCC2)c1 | 4.1 | · | -3.5 | -0.5 | 3171 | 2.5 | 2.9
COc1ccc(OCC(=O)Nc2ccc(N3CCC(C)CC3)cc2)cc1 | 5.3 | -15.1 | -17.7 | 9.3 | 6435 | 5.5 | 9.4
CCOC(=O)C1=C(C)NC(=O)NC1c1ccc(Cl)cc1Cl (stereo not drawn) | -2.7 | -0.3 | 10.8 | 2.0 | 20836* | 17.7 | 7.9
NS(=O)(=O)c1ccc(CNS(=O)(=O)c2ccc(Cl)nc2)cc1 | 8.5 | 7.5 | -27.4 | 1.9 | 3047 | 4.1 | 6.7
COCCN(CCOC)Cc1c(C)[nH]c2ccccc2c1=O | -6.8 | -2.8 | -7.2 | 0.4 | 4043 | 2.7 | 6.5
COc1cc(OC)c(OC)cc1C=Nn1c(C)nnc1C | -10.9 | · | · | -7.4 | · | -1.2 | 11.3
C/C(CC(=O)NCc1ccco1)=N\NC(=O)c1ccc([N+](=O)[O-])cc1Cl | · | -15.5 | -15.3 | · | 5668 | · | ·
CCC(C)NC(=O)c1ccc(CN2CCc3ccccc3C2)cc1 (stereo not drawn) | 1.8 | -1.4 | -15.7 | 5.0 | 3425 | -7.6 | -7.4
Cc1cc(OCC(=O)N2CCC[C@@H]2C(=O)O)c2c(C)c(C)c(=O)oc2c1 | 1.0 | 0.4 | -18.4 | 5.6 | 5252 | · | ·
Cc1ccc(C(=O)N/N=C/c2cccc(OC(=O)/C=C/c3ccco3)c2)cn1 | · | -1.3 | -56.5 | · | 4139 | · | ·
COc1ccc(Br)cc1CN(C)CC(O)COc1ccc(Br)cc1 (stereo not drawn) | 10.8 | -4.7 | -28.8 | -3.6 | 5991 | -12.8 | -7.3
Cc1cc(C)n(-c2nc(NCC(C)O)c3c4c(sc3n2)CCCC4)n1 (stereo not drawn) | -0.5 | -11.6 | -30.5 | 3.6 | 4061 | · | ·

Profiles, looked up by structure:
Results for COc1ccc(Br)cc1CN(C)CC(O)COc1ccc(Br)cc1 (stereo not drawn) → Sa ugtP lethal = 10.8; BJeLR viability = -4.7; PrP UTR inh = -28.8; RN4220 kill = -3.6; Autofluor counter = 5991; Mtb hypoxia rep = -12.8; Mtb hypoxia rep growth = -7.3
Results for C/C(CC(=O)NCc1ccco1)=N\NC(=O)c1ccc([N+](=O)[O-])cc1Cl → Sa ugtP lethal = ·; BJeLR viability = -15.5; PrP UTR inh = -15.3; RN4220 kill = ·; Autofluor counter = 5668; Mtb hypoxia rep = ·; Mtb hypoxia rep growth = ·

By substructure, the compounds so far with a furan ring, fused or not (two)
Compound | Sa ugtP lethal | BJeLR viability | PrP UTR inh | RN4220 kill | Autofluor counter | Mtb hypoxia rep | Mtb hypoxia rep growth
C/C(CC(=O)NCc1ccco1)=N\NC(=O)c1ccc([N+](=O)[O-])cc1Cl | · | -15.5 | -15.3 | · | 5668 | · | ·
Cc1ccc(C(=O)N/N=C/c2cccc(OC(=O)/C=C/c3ccco3)c2)cn1 | · | -1.3 | -56.5 | · | 4139 | · | ·

Exported as labelled records: entries from further up
C/C(CC(=O)NCc1ccco1)=N\NC(=O)c1ccc([N+](=O)[O-])cc1Cl
- Sa ugtP lethal: ·
- BJeLR viability: -15.5
- PrP UTR inh: -15.3
- RN4220 kill: ·
- Autofluor counter: 5668
- Mtb hypoxia rep: ·
- Mtb hypoxia rep growth: ·
CCC(C)NC(=O)c1ccc(CN2CCc3ccccc3C2)cc1 (stereo not drawn)
- Sa ugtP lethal: 1.8
- BJeLR viability: -1.4
- PrP UTR inh: -15.7
- RN4220 kill: 5.0
- Autofluor counter: 3425
- Mtb hypoxia rep: -7.6
- Mtb hypoxia rep growth: -7.4
Cc1cc(OCC(=O)N2CCC[C@@H]2C(=O)O)c2c(C)c(C)c(=O)oc2c1
- Sa ugtP lethal: 1.0
- BJeLR viability: 0.4
- PrP UTR inh: -18.4
- RN4220 kill: 5.6
- Autofluor counter: 5252
- Mtb hypoxia rep: ·
- Mtb hypoxia rep growth: ·

High-throughput results as filed in PubChem BioAssay.
